Source: PubChem (several laboratories)
ugtP null kill: growth inhibition of ugtP-null S. aureus, primary screen, RN4220 ugtP deletion, OD600; 330,000 compounds, 0.54% hits; growth inhibition, % (test concentration not listed); 16 h; some inactives read as strong as hits;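 active = z-score under -3 and OD600 up to 0.15 on both plates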;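 also: plate controls were untreated wells for no effect and antibiotic for full effect; wells of about 80 µL received 100 nL stock; the first replicate is given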
BJeLR viability: MLPCN primary cell-based screen for lethality selective to Ras in HRASV12 cells | BJeLR (HRASV12) viability, CellTiter-Glo ATP luminescence, 48 h; reference of the scale not given here | inhibition, % (test concentration not listed) | 300,000 compounds, 0.17% hits;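 active = replicate mean above 50%; inconclusive = above 50% but judged a plate artefact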;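 also: 50 nL library stock added to about 25 µL; numbers are from one replicate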
PrP UTR inh: inhibition of PrP 5' UTR reporter expression; cell-based PrP 5' UTR mRNA reporter, plate reader; inhibition, % (concentration not given with the values); 340,000 compounds, 0.35% hits; AID 488862, 2010;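 active = every replicate at 50% or more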;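 also: 0 = median of the neutral control wells; tested in H4 reporter cells; numbers are from one replicate; inactives centre near -14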
Sa RN4220 lethal: growth inhibition of S. aureus RN4220, primary screen, OD600; 16 h; inhibition, % (no concentration beside the values); 330,000 compounds, 0.33% hits;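 active = z-score of -3 or lower and OD600 up to 0.18 on both plates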;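 also: plate controls were untreated cells for no effect and reference antibiotic for full effect; stock transfer was 100 nL into about 80 µL; one replicate is shown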
Mtb hypoxia rep: PubChem AID 1159583; M. tuberculosis hypoxia-regulated fluorescent reporter, fluorescence; fluorescence inhibition, % (no concentration beside the values); 300,000 compounds, 0.1% hits;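 active = 35 to 45% if threefold the growth effect, above 45% if 1.5-fold the growth effect; inactive = the rest, general growth blockers included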;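 also: wells of about 50 µL received 100 nL stock; 0% = vehicle wells and 100% = reference inhibitor wells; whole bacteria with a GFP reporter of the hypoxia response; strong numbers were not always called active; many hits fall short of the cut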
Bead autofluor: flagged as autofluorescent in microsphere protease counterscreen. compound autofluorescence counterscreen, microsphere flow cytometry; stronger effect = higher value. fluorescence intensity (test concentration not listed). 360,000 compounds, 3.1% hits. AID 624483;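 active = at least 3 SD above the mean of all compounds, about 16000 in these data; inconclusive = too few beads counted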;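 also: 100 nL of 1 mM stock went into each well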
Mtb hypoxia rep growth: recorded beside Mtb hypoxia rep, whose call it bears; growth inhibition, %; measured here: M. tuberculosis growth (absorbance);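 0% = vehicle and 100% = reference antibiotic; read after six days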
* marks the source's active call; other numbers are inactive results; ? = inconclusive; . = not tested or not shown.

SMILES	ugtP null kill	BJeLR viability	PrP UTR inh	Sa RN4220 lethal	Mtb hypoxia rep	Mtb hypoxia rep growth	Bead autofluor
O=c1cc(CSc2ccc(Cl)cc2)nc2nc[nH]n12	10	-5	-7	6.1	4	-2	8200
Cc1cccc(C)c1NC(=O)NC1(C(=O)N2CCCC2)CCCCC1	14	4	-16	1.9	11	4	3809
CCN1CCN(c2ccc(NC(=O)CCc3c(C)nc4c(-c5ccccc5)c(C)nn4c3C)cc2)CC1	16	5	-26	4.2	5	19	5759
COc1ccc(C(=O)O/N=C(\N)c2ccc(Br)cc2)cc1	1	-5	-42	2.6	-7	-4	3014
CCCCCn1c(SCC(=O)c2ccccc2)nc2cc(C(=O)NCC3CCCO3)ccc2c1=O (stereo unspecified)	1	.	-7	2.4	12	-2	4705
N/C(Cc1ccc([N+](=O)[O-])cc1)=N\OC(=O)COc1cccc2ccccc12	.	-1	-41	.	.	.	11253
COc1ccccc1N1CCN(C(=O)c2cn(-c3ccccc3)nc2-c2cccnc2)CC1	-10	-3	-10	-4.4	-4	8	10406
CC(NC(=O)COC(=O)/C=C/c1cccc(C(F)(F)F)c1)c1ccccc1 (stereo unspecified)	1	0	-19	0.9	-18	-24	2116
Cc1nc(-c2ccccc2)sc1C(=O)CSc1ccc(Br)cc1	33	2	-3	-6.3	.	.	2100
Cc1ccc(CN2C(=O)CCC2C(=O)NCCN(CC(C)C)CC(C)C)cc1 (stereo unspecified)	1	-4	-14	-11	8	-4	2971
Fc1ccc2c(c1)c1n[nH]c(=S)nc1n2CCc1ccccc1	-6	18	-7	-2.0	-3	9	3314
Cc1cc(NC(=O)C2CCN(S(=O)(=O)c3c(C)noc3C)CC2)ccc1Br	-1	9	-13	2.6	-6	-6	4198
Cc1nn(-c2ccccc2)c(C)c1C(=O)OC/C(O)=C(\C#N)c1nc2ccccc2[nH]1	.	-14	-25	.	.	.	9122
COc1cccc(N2CCN(S(=O)(=O)c3cn(C)cn3)CC2)c1	4	23	-22	1.2	8	2	4169
COc1ccccc1CNC(=O)C1CC(=O)N(C2CCCC2)C1 (stereo unspecified)	2	-3	-35	0.6	6	-2	6313
CCc1cccc(C)c1NC(=O)c1ccccc1	14	5	-23	9.6	2	0	4309
Cc1nnc(NN2CCOCC2)[nH]c1=O	4	2	84*	5.6	16	5	3476
CCOCCn1c(=NC(=O)CSCC(=O)Nc2cc(C)on2)sc2cc(OC)ccc21	1	2	-10	3.6	16	12	5605
Cc1cc2ccccc2c(=O)n1CC(=O)N(C)c1ccc(F)cc1	5	-3	-11	-0.5	.	.	.
COc1cc2ncnc(NCCc3ccccc3)c2cc1OC	4	5	-19	5.4	9	4	4304
O=C(CSc1nnc(-c2ccccc2)c(-c2ccccc2)n1)NC1CCS(=O)(=O)C1 (stereo unspecified)	-6	2	-18	4.3	-1	3	3803
COc1ccc(-n2nc3c(N4CCC(C(=O)NCc5ccccc5)CC4)nnc(C)c3c2C)cc1	-6	-8	-18	-2.1	8	19	5712
O=C(CN1C(=O)c2ccccc2S1(=O)=O)c1ccc(F)c(F)c1	3	-15	30	1.4	-8	0	5599
Cc1cccc(Cn2cnc3c(NS(C)(=O)=O)c(C)c(C)cc32)c1	6	-10	7	1.6	-3	-4	3415
CCCCCSc1nc(O)cc(=O)[nH]1	4	-3	-19	3.9	.	.	2137
Cc1ccc(C)c(NC(=O)COC(=O)c2ccc[n+]([O-])c2)c1	6	.	-23	0.9	7	-4	3000
CC(C)(C)OC(=O)N1CCC(C(=O)Nc2cccc(C(=O)N3CCOCC3)c2)CC1	-1	.	-14	-2.4	2	2	3647
Cc1ccsc1C(=O)Nc1cc(C(C)(C)C)nn1-c1ccccc1	1	6	-25	1.3	7	5	8084
N#Cc1nc(-c2cccs2)oc1NCc1ccccc1Cl	-2	-2	-18	-4.4	.	.	2210
Nc1c(C(=O)Nc2ccc(Cl)c(Cl)c2)sc2nc(-c3cccnc3)ccc12	-12	-4	.	-0.6	-3	-1	.
COc1ccc(C(O)Cn2ccsc2=NC(C)=O)cc1 (stereo unspecified)	-1	6	-8	-1.6	5	12	5230
Cc1ccc(NC(=O)CN2CCCC2)cc1Br	5	-9	2	1.6	-5	5	.
Cc1ccccc1NC(=O)c1cc(S(=O)(=O)N2CCOCC2)cn1C	4	-6	-26	5.6	4	2	6259
CCCCC(C)=NNC(=O)Nc1ccccc1	-1	.	.	3.9	7	6	.
COc1cccc(-n2c(SCC(=O)NC(C)(C)C)nnc2-c2ccoc2C)c1	8	5	-10	5.6	-1	0	3002
CCOc1ccc(NC(=O)CN(C)C(=O)c2ccc(N3CCCCC3)c([N+](=O)[O-])c2)cc1OCC	8	-8	-22	0.9	0	-6	5438
CCCCOc1cc(C)nc(NCc2ccccc2)n1	-7	-3	-16	-1.6	-5	-1	3219
CS(=O)(=O)c1ccccc1-c1nc(-c2cc(C(F)(F)F)cc(C(F)(F)F)c2)no1	-8	-4	-13	-1.5	.	.	2057
O=C(COC(=O)c1ccc(F)cc1F)c1ccc[nH]1	-1	.	-6	2.1	10	-1	4682
COc1ccc2c(CC(=O)N[C@@H](Cc3c[nH]c4ccccc34)C(=O)O)cc(=O)oc2c1	2	3	10	1.4	-3	7	3818
O=C(Cc1cccc(C(F)(F)F)c1)OCC(=O)N1CCN(S(=O)(=O)c2ccc(Cl)cc2)CC1	2	-6	-4	0.5	2	0	?
O=C(COc1ccc(=O)n(-c2ccccc2)n1)Nc1ccccc1	-1	9	-33	0.7	-5	-1	7022
O=C(CNC(=O)c1ccc(Cl)cc1)OCCN1C(=O)c2ccccc2C1=O	11	.	-11	3.7	6	2	6598
COC(=O)C1=C(C(=O)OC)[C@@H]2N(Cc3ccccc3)c3ccccc3[C@@]23C[C@@H](C(=O)OC)N(C(=O)CC(C)C)C3=N1	.	-4	0	.	.	.	3972
COc1cc(NC(=O)NCC2CCN(Cc3ccccc3C)CC2)cc(OC)c1OC	10	11	-5	7.2	13	4	3830
CCC(C)[C@H](NC(=O)Nc1ccc(S(N)(=O)=O)cc1)C(=O)O (stereo partly specified)	.	5	-10	.	.	.	2325
O=C(CCN1C(=O)c2ccccc2S1(=O)=O)NCc1ccco1	-1	-4	-12	3.2	-3	6	7253
Cc1ccc(N(C(=O)CNC(=O)c2ccco2)C(C(=O)NCC2CCCO2)c2ccccc2)cc1 (stereo unspecified)	-2	-3	-21	4.6	12	7	8020
Cc1ccccc1CC(=O)Nc1ccc(S(=O)(=O)N2CCN(C)CC2)cc1	9	2	-23	2.7	3	-3	4087
COc1ccccc1C(=O)NCC(=O)NC(C)CCc1ccccc1 (stereo unspecified)	-1	0	-4	-0.4	7	15	5567

Structures listed so far that have bromine (4):
SMILES	ugtP null kill	BJeLR viability	PrP UTR inh	Sa RN4220 lethal	Mtb hypoxia rep	Mtb hypoxia rep growth	Bead autofluor
COc1ccc(C(=O)O/N=C(\N)c2ccc(Br)cc2)cc1	1	-5	-42	2.6	-7	-4	3014
Cc1nc(-c2ccccc2)sc1C(=O)CSc1ccc(Br)cc1	33	2	-3	-6.3	.	.	2100
Cc1cc(NC(=O)C2CCN(S(=O)(=O)c3c(C)noc3C)CC2)ccc1Br	-1	9	-13	2.6	-6	-6	4198
Cc1ccc(NC(=O)CN2CCCC2)cc1Br	5	-9	2	1.6	-5	5	.

The list goes on:
SMILES	ugtP null kill	BJeLR viability	PrP UTR inh	Sa RN4220 lethal	Mtb hypoxia rep	Mtb hypoxia rep growth	Bead autofluor
Cc1cccc(C)c1N=C1NN=C(c2ccccc2F)CS1	6	6	-45	12	10	18	2671
COc1ccccc1NC(=O)NC1(C(=O)N2CCN(C)CC2)CCCCC1	2	1	-13	0.4	1	-5	3790
C=C(C)c1cccc(C(C)(C)NC(=O)NCCN(CC)CC)c1	.	-4	-19	.	.	.	3351
COc1ccc(N2CCCn3c2nc2c3c(=O)n(Cc3ccc(C)cc3)c(=O)n2C)c(OC)c1	-3	10	1	5.3	16	5	4730
O=C(O)c1cc(N/N=C/c2ccncc2)ccc1Cl	.	2	-20	.	.	.	4559
CCCc1cc(=O)[nH]c(SCC(=O)NC2(C#N)CCCCC2)n1	-8	.	-18	-1.3	-7	0	8509
CCC(C)(C(=O)NC1CCCCC1)N(Cc1ccco1)C(=O)CNC(=O)c1ccccc1 (stereo unspecified)	11	2	-8	1.9	.	.	3775
COc1ccc(/C=C/C(=O)c2ccc(OC)cc2OC)c(OC)c1	1	4	-32	2.2	.	.	4190
CCOc1ccc(-c2c(C(=O)NN=C(C)c3ccco3)nnn2-c2nonc2N)cc1	8	.	.	3.7	-5	-10	.
O=c1[nH]c(=O)n(-c2cccc3ccccc23)c(O)c1C=NCCCn1ccnc1	1	-4	-6	8.7	-7	7	2910
Cc1ccc(NC(=O)C(=S)NCc2ccco2)cc1	8	-5	-56	-0.3	.	.	4523
CCOc1ccc(/C=N/NC(N)=S)cc1	.	-3	-15	.	.	.	2518
CCn1c(=O)c2c(nc(SCC(=O)N3CCCC(C)C3)n2C)n(C)c1=O (stereo unspecified)	0	-3	-13	1.9	13	5	3995
COc1ccccc1CN1C(=O)[C@@H]2C(CCC(N)=O)NC3(C(=O)Nc4c3ccc(Cl)c4C)[C@@H]2C1=O (stereo partly specified)	-4	-9	-22	0.4	-1	-4	4140
O=C(CSc1ccc([N+](=O)[O-])cc1)NCC1CCCCC1	4	-14	-20	4.9	10	-13	5449
CC(=O)Nc1ccccc1NC(=O)CC(C)=NNC(=O)c1ccccn1	3	.	.	6.6	5	-3	.
COc1ccc(C(=O)C2CCCN(C(=O)c3cccnc3SC)C2)c(C)c1 (stereo unspecified)	4	2	2	5.7	16	9	3348
O=C(CCS(=O)(=O)c1cccc2nsnc12)NCc1ccccc1Cl	1	0	7	2.3	4	0	5987
OC12CC3C[C@H](C1)C(N1CCOCC1)[C@@H](C3)C2 (stereo partly specified)	6	-1	-11	3.9	2	7	3863
O=C(Nc1ccc2c(c1)OCCO2)C1CCCN1C(=O)Nc1ccc(F)cc1 (stereo unspecified)	.	6	-8	.	.	.	4248

2 records drawn at random from those above:
SMILES	ugtP null kill	BJeLR viability	PrP UTR inh	Sa RN4220 lethal	Mtb hypoxia rep	Mtb hypoxia rep growth	Bead autofluor
O=C(CCS(=O)(=O)c1cccc2nsnc12)NCc1ccccc1Cl	1	0	7	2.3	4	0	5987
OC12CC3C[C@H](C1)C(N1CCOCC1)[C@@H](C3)C2 (stereo partly specified)	6	-1	-11	3.9	2	7	3863

Other compounds.
SMILES	ugtP null kill	BJeLR viability	PrP UTR inh	Sa RN4220 lethal	Mtb hypoxia rep	Mtb hypoxia rep growth	Bead autofluor
CC(C)(O)C1Cc2cc(/C=C/C(=O)O)c(O)cc2O1 (stereo unspecified)	-7	1	-9	11	5	4	4805
CCN(Cc1cnn(C)c1)Cc1nc(C2(c3ccc(C)cc3)CCCC2)no1	6	2	1	6.9	17	4	4170
CC(C)(C)c1cc(NC(=O)COc2ccc(Br)cc2)n(-c2ccccc2)n1	0	-11	-18	-1.8	17	12	6683
COC(=O)c1nc2nc(C)cc(C(F)(F)F)n2n1	-1	13	-15	1.2	8	9	4651
Cc1cc(C(=O)NNC(=O)C2CCCC2)c(C)o1	18	6	-12	4.3	5	-1	5381
Clc1ccc(-c2cc(CSc3cccc(Cl)c3)on2)cc1	5	2	2	8.2	.	.	2134
CN(C)CCNC(=O)/C=N/O	.	2	-15	.	.	.	2681
CCCCOC(=O)C1=C(C)NC(=O)NC1c1ccc(N(C)C)cc1 (stereo unspecified)	6	-3	-14	7.0	15	2	3913
O=C(CCC(=O)c1cccs1)NCc1cccc(C(F)(F)F)c1	-4	1	-9	-0.7	-1	1	.
CN(C)c1ccc(/C=C2\C(=N)N3N=C(CC(=O)N4CCCC4)SC3=NC2=O)cc1Br	2	8	-7	4.3	9	1	5459
CN(C)C(CNC(=O)c1cccc(S(=O)(=O)Nc2ccccc2Cl)c1)c1ccccc1 (stereo unspecified)	3	.	-13	7.2	3	9	.
CCOc1ccc2nc(N3CCC(C(=O)N4CCN(C5CCCCC5)CC4)CC3)sc2c1	6	13	-51	2.1	.	.	5515
CC(NCc1cc(Br)ccc1OCC(=O)NCc1ccccc1)c1ccccc1 (stereo unspecified)	-25	16	-19	-2.7	-6	19	4416
Cc1nc(-c2cn[nH]c2-c2ccc(O)cc2O)cs1	7	3	-12	2.6	-10	7	2916
CCOc1cc(/C=C(\CC(=O)O)c2nc3ccccc3s2)ccc1OCC(=O)Nc1cccc(C(F)(F)F)c1	-3	.	-9	15	-4	6	3767
